Source: PubChem BioAssay (National Center for Advancing Translational Sciences (NCATS))
HSD17B inhib = inhibitors of human HSD17B10 dehydrogenase; Q99714; recombinant HSD17B10, NADH fluorescence kinetic; many of its hits are not listed in these tables; Potency, µM (highest dose often 57.1 µM), inactives show at the highest dose activity change, negative = inhibition, actives largely listed as inhibitors; 75,000 compounds, 7.6% hits; AID 893; active = well fitted inhibition curve with a large enough effect; inconclusive = small, poorly fitted or top-dose-only effect; inactive = no such curve, though single readings can be large or run the other way;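 note: the protocol describes HADH2 (HSD17B10) and not the HSD17B4 of the title; nearly all actives have a fitted effect of over 70% in size; most hits overshoot -100% by far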
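Activity followed as NADH fluorescence increase (ex 360, em 450 nm) every 30 seconds for 4 min, using final 90 uM beta-hydroxybutyryl CoA and 1 mM NAD+. Recombinant His-tagged enzyme, 20 nM, pH 9.0 Tris buffer, 15 min compound preincubation.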
The depositor's hits bear a star; ? = inconclusive; [ ] = dose if it differs, or a comment. % is set by controls: 0 for no effect and ±100 for the full control effect; potency is the fitted concentration of half-maximal effect. Only part of the results is shown; the hit share may differ from the screen's.

SMILES | HSD17B inhib
O=C(CSc1nnc(-c2ccccc2)n1Cc1ccccc1)N1CCOCC1 | -3.1%
O=C(Nc1ccccc1C(=O)NCc1cccnc1)c1ccco1 | -1.2%
COC(=O)c1[nH]c2cccc(OC)c2c1NC(=O)CN1CCOCC1 | 31.6µM*
CCCCCOc1ccc(CN2CCOCC2)cc1Cl | 6.6%
c1ccc(CCc2ccccc2-c2nc(-c3ccccn3)no2)cc1 | -14.8%
Cc1cccc(OCC(=O)Nc2ccc3c(c2)OCCO3)c1 | -0.7%
O=C(CN(Cc1ccc2c(c1)OCO2)C(=O)CNS(=O)(=O)c1ccccc1)NCc1ccco1 | 15.5%
COc1ccc(S(=O)(=O)N2CCC(C(=O)N3CCCC3)CC2)cc1 | 5.2%
CCOP(=O)(c1ccc(N(C)C)cc1)C(O)c1c(Cl)cccc1Cl (stereo unspecified) | 5.9%
COc1ccc(Cl)cc1S(=O)(=O)N1CCCC(C(=O)NCC(N)=O)C1 (stereo unspecified) | 5.2%
COc1ccc(S(=O)(=O)Cc2ccc(C(=O)N3CCN(C4CCCCC4)CC3)o2)cc1 | 3.3%
CC(C)C(NS(=O)(=O)c1cccs1)C(=O)NCc1ccc2c(c1)OCO2 (stereo unspecified) | 1.9%
Cc1ccc(CC2(O)CC(C)N(C)CC2C)c(C)c1 (stereo unspecified) | 6.4%
COC(=O)c1c(NC(=O)CSc2n[nH]c(N)n2)sc(C)c1C | 7.8%
COC(=O)CC1C(C)(C)C2(O)OC34CC2C(=O)[C@@]1(C)C3CC[C@]1(C)C4=CC(=O)OC1c1ccoc1 (stereo partly specified) | -2.4%
COc1cc(C(O)P(=O)(OC(C)C)c2ccc(N(C)C)cc2)cc(OC)c1OC (stereo unspecified) | -0.5%
Cn1c(=O)c(C(=O)Nc2ccccn2)c(O)c2ccccc21 | -4.0%
CCCCCCn1c(SCCC)nc2c1c(=O)[nH]c(=O)n2C | 4.8%
COC(=O)c1ccc(C(NC(=O)OCc2ccccc2)/C(I)=C/[C@@H](C)C(=O)NCC2CC2)cc1 (stereo partly specified) | 10.9%
COc1cccc(NC(=O)c2ccccc2-c2nc(-c3ccccc3)no2)c1 | -11.3%
Cc1ccc(Cn2nc(C)c(NC(=O)c3cc(-c4ccc5c(c4)OCO5)on3)c2C)cc1 | -2.8%
C=CCOc1c(Cl)cc(C2NC(=O)NC(C)=C2C(=O)OC)cc1Cl (stereo unspecified) | 333.5%[activator]
Cn1c(-c2ccccc2)cc2c3no[n+]([O-])c3ccc21 | 3.8%
O=S(=O)(NC1CCCC1)c1cccc(S(=O)(=O)N2CCC(n3nnc4ccccc43)CC2)c1 | -1.2%
CC1CC(C)(C)NC(=O)O1 (stereo unspecified) | 3.0%
C=CCSC1=NC(N)=C(C#N)C2(CCCCC2)C1C(N)=O (stereo unspecified) | -1.7%
CS(=O)(=O)c1ccc2nc(NC(=O)c3cccs3)sc2c1 | -7.9%
CCN(CC)C(=O)c1sc(NC(=O)c2ccco2)c(C#N)c1C | -17.2%
CCOc1ccc(-c2nc(N)ncc2-c2ccccc2)c(O)c1 | -2.2%
CCOC(=O)c1sc(C)c2c1NC1(CCCCC1)NC2=O | 31.6µM*
CCOC(=O)c1ccc(-n2c(-c3ccco3)nc3ccccc3c2=O)cc1 | 3.6%
COc1ccc(NC(=O)c2oc3ccccc3c2NC(=O)COc2ccccc2OC)c(OC)c1 | -93.6%
CC(C)OC(=O)CSc1nc2cccnc2n1C1CCCCC1 | -0.3%
CC(=O)Nc1c(O)nc(SCC(=O)N2CCN(c3ccc(F)cc3)CC2)[nH]c1=O | 6.6%
Cc1noc(C)c1C(=O)NCCCc1ccccc1 | 6.0%
COc1cccc(Cn2c(=O)c(-c3ccccc3)nc3cncnc32)c1 | -10.3%
O=C1CC(c2ccccc2)C(=O)N1c1cccc(O)c1 (stereo unspecified) | 3.3%
CCOC(=O)c1nnn(-c2nonc2N)c1-c1cccs1 | 13.2%
CC(C)Cc1nnc(NC(=O)CCN2C(=O)c3ccccc3C2=O)s1 | -19.6%
CCCn1nnnc1NCc1cccn1C | -6.6%

Reprinted at random: 7 compounds from above.
SMILES | HSD17B inhib
CCCCCOc1ccc(CN2CCOCC2)cc1Cl | 6.6%
Cc1cccc(OCC(=O)Nc2ccc3c(c2)OCCO3)c1 | -0.7%
CCOC(=O)c1sc(C)c2c1NC1(CCCCC1)NC2=O | 31.6µM*
CC(C)OC(=O)CSc1nc2cccnc2n1C1CCCCC1 | -0.3%
COc1cccc(NC(=O)c2ccccc2-c2nc(-c3ccccc3)no2)c1 | -11.3%
COc1ccc(S(=O)(=O)N2CCC(C(=O)N3CCCC3)CC2)cc1 | 5.2%
CCOC(=O)c1nnn(-c2nonc2N)c1-c1cccs1 | 13.2%

Next entries
SMILES | HSD17B inhib
CC(C)Cn1c(N)c(C(=O)COC(=O)c2ccc3ccccc3n2)c(=O)n(C)c1=O | -4.5%
CCC(C)(C(=O)NC1CCCCC1)N(C(=O)c1cnccn1)c1c(C)n(C)n(-c2ccccc2)c1=O (stereo unspecified) | 10.2%
CCCOc1ccc(/C(O)=C2/C(=O)C(=O)N(CCOC)C2c2cccnc2)cc1 (stereo unspecified) | 8.3%
O=C(CN(Cc1ccco1)C(=O)CNS(=O)(=O)c1ccc(F)cc1)NCCc1ccccc1 | -15.0%
O=C(NCCN1CCCCC1)c1ccc(Cc2nc3ccccc3[nH]2)cc1 | 3.7%
O=C(CN1C(=O)CCS(=O)(=O)c2ccccc21)Nc1cccc(F)c1 | 0.2%
COC(=O)c1ccc(C(NC(=O)OCc2ccccc2)/C(C)=C/[C@@H](C)C(=O)NCCN2CCOCC2)cc1 (stereo partly specified) | -7.2%
COCCNC(=O)Cc1cn(C)c2ccccc12 | -18.1%
C=CCN(Cc1cc(OC)ccc1OC)S(=O)(=O)N(C)C | 12.4%
COc1cc2[nH]c(=O)n(CCCCCC(=O)NCCCN3CCC(C)CC3)c(=O)c2cc1OC | 31.6µM*
COc1ccc(-n2c(=O)[nH]cc(C(=O)Nc3ccc(NC(C)=O)cc3)c2=O)cc1 | 4.5%
CN(C)/C=N/c1c(C#N)nnn1Cc1ccccc1 | 12.6%
COc1ccc2[nH]c(=O)c(CN(C)C(=O)c3ccncc3)cc2c1 | 31.6µM*
CCCC(c1nnnn1Cc1ccc(OC)cc1)N1CCN(c2ccccc2OC)CC1 (stereo unspecified) | -3.0%
O=C(O)CCNC(=O)c1ccc(Br)o1 | 3.3%
CCCn1c(SCC(=O)N2CCN(c3ccc(OC)cc3)CC2)nc2c1c(=O)n(C)c(=O)n2C | 7.2%
Cc1ccccc1N(CC(=O)NC1CCCC1)C(=O)CS(=O)CC(=O)Nc1ccc2c(c1)OCO2 (stereo unspecified) | 6.2%
COc1ccccc1CN1C(=O)CCC1(C)C(=O)NCc1cccnc1 (stereo unspecified) | -0.7%
CN1CCN(C(=O)c2c(O)c3cccc4c3n(c2=O)CC4)CC1 | -14.8%
CCn1c(SCc2nc(-c3ccc(OC)c(OC)c3)no2)nnc1-c1cccs1 | -0.8%
O=C(OCC1CCCN2CCCCC12)c1ccc2c(c1)OCO2 (stereo unspecified) | -3.1%
O=C(CCn1nc(-c2ccccc2)ccc1=O)NCCCN1CCCCCC1 | 6.9%
Cc1nc2ccc3[nH]snc3c2n1 | -12.2%
O=C(COc1ccc(-n2cnnn2)cc1)NCCc1ccc(F)cc1 | 8.6%
O=S(=O)(c1ccc(Br)s1)N1CCc2ccccc2C1 | -6.3%
COCCNc1ncnc2ccc(-c3cccc(OC)c3)cc12 | 25.1µM*
O=c1ccc2c(OCCCCc3ccccc3)c3ccoc3cc2o1 | ?
CCCCOCCCNC(=O)c1cccs1 | 2.9%
COc1ccc(NC(=O)N2CC[C@@]3(CCCNC3)C2)cc1 | -7.9%
COc1cc(C2c3cc4c(cc3C(O[C@@H]3OC5COC(c6cccs6)OC5C(O)C3O)C3COC(=O)C23)OCO4)cc(OC)c1O (stereo partly specified) | 2.7%
O=C(O)[C@H]1C(=CCO)O[C@H]2CC(=O)N12 | 5.9%
CCOC(=O)c1ccc(NC(=O)CN(C)S(=O)(=O)c2ccc(OC)cc2)cc1 | 2.6%
CC(C)C(=O)Nc1cccc(C(=O)NCCc2ccc(S(N)(=O)=O)cc2)c1 | 11.0%
CC1(C)CC(=O)C(C=Nc2ccc3c(c2)OCO3)=C(O)C1 | 0.9%
COc1cccc(C(=O)NCC2CCCO2)c1 (stereo unspecified) | 3.4%
Cc1csc(NC(=O)CN2CCCCCC2)n1 | ?
Cc1ccc(C(=O)NCc2ccco2)cc1S(=O)(=O)N1CCCCC1 | -26.4%
COc1ccc(Cc2ccc3[nH]c(=O)cc(C)c3c2)cc1S(=O)(=O)O | 9.4%[11.4 µM]
COCC(=O)Nc1cc(=O)n(C)c(=O)n1C | 0.6%
NC(=O)CNC1CC(=O)N(CCc2ccccc2)C1=O (stereo unspecified) | -8.8%
CCOCC(=O)Nc1cccc(OC)c1 | 15.2%
CCN(CC)c1ccc2oc(=O)c(C)nc2c1 | -25.8%
CC(C)(C)OC(=O)N1CCC(c2c(C(=O)O)cnn2-c2ccccc2Cl)CC1 | 2.0%
O=C(CCN1C(=O)c2ccccc2C1=O)OCn1nnc2ccccc2c1=O | 2.2%
COc1ccccc1CN1CCCC2(CCN(C(=O)c3cccn3C)CC2)C1 | 0.6%
CCOC(=O)N1CCN(C(=O)CC(=O)Nc2ccc3nc4n(c(=O)c3c2)CCCCC4)CC1 | -8.6%
COc1ccc(-c2nnc(NC(=O)c3cc(C)on3)s2)cc1 | -26.2%
O=C1CCCC/C1=C\Nc1ccccc1C(=O)O | 31.6µM*
O=S(=O)(c1ccc2c(c1)OCCO2)N1CCN(c2nc3ccccc3s2)CC1 | 10.2%
COc1cccc(Nc2nnc(SCC(=O)N3CCOCC3)s2)c1 | 2.6%
CCn1c(SCC(=O)Nc2cc(NC(C)=O)ccc2OC)nnc1-c1ccncc1 | 6.9%
NC1=NCCCC1 | ?
CC1O[C@@H](O[C@H]2C(Oc3cc(O)c4c(c3)OC(c3ccc(O)cc3)CC4=O)OC(CO)C(O)C2O)C(O)C(O)C1O (stereo partly specified) | 2.9%
CS(=O)(=O)CCCCN=C=S | 3.0%
CC12CCC(c3c(C(=O)O)nn(-c4ccccc4)c31)C2(C)C (stereo unspecified) | -2.5%
CC(=O)c1c(C)oc2ccc(NS(=O)(=O)c3ccc(O)c(C(=O)O)c3)cc12 | -17.0%
COCC(=O)N1CCC[C@@]2(CCN(C(=O)Nc3cccc(F)c3)C2)C1 | 2.3%
COCCCN1C(=O)C(O)=C(C(=O)c2ccc(C)o2)C1c1cccc(Br)c1 (stereo unspecified) | -6.7%
O=C(OC(C(=O)NCc1cccs1)c1ccccn1)c1cccs1 (stereo unspecified) | -5.4%
O=c1oc2cc(N=Cc3ccc4c(c3)OCO4)ccc2c2ccccc12 | 4.7%[11.4 µM]

The final two records of the section above lead into the next.
SMILES | HSD17B inhib
O=C(OC(C(=O)NCc1cccs1)c1ccccn1)c1cccs1 (stereo unspecified) | -5.4%
O=c1oc2cc(N=Cc3ccc4c(c3)OCO4)ccc2c2ccccc12 | 4.7%[11.4 µM]
Cc1ccc(Cn2c(SCC(=O)Nc3cccc(C)n3)nc3c2c(=O)n(C)c(=O)n3C)cc1 | 21.2%
COc1ccc(CN2CCCC(C(=O)N(C)Cc3ccccc3)C2)cc1OC (stereo unspecified) | 5.0%
Cn1c(=O)n(-c2cccc(Cl)c2)c(=O)n1C | 12.0%
O=C(Nc1ccc(F)cc1Cl)c1ccc2c(=O)n3c(nc2c1)CCCCC3 | -6.1%
C=CCOc1cccc(C2/C(=C(/O)c3ccc(Cl)cc3)C(=O)C(=O)N2CCN2CCOCC2)c1 (stereo unspecified) | -10.7%
Cc1noc(/C=C/c2ccco2)c1S(=O)(=O)N1CCC(C(=O)N2CCc3ccccc3C2)CC1 | ?
CN(C)S(=O)(=O)c1ccc(C(=O)N2CCCC2c2nc3ccccc3s2)cc1 (stereo unspecified) | 15.1%
O=C(CSc1nc2c([nH]c3ccccc32)c(=O)n1-c1cccc(Cl)c1)N1CCOCC1 | -26.4%
O=C(NC1CCCCC1)c1ccc(S(=O)(=O)NCc2ccco2)cc1 | -9.6%
Cc1cccc2[nH]c(-c3ccc(NC(=O)c4ccco4)cc3)nc12 | 134.2%[activator]
CCCC(=O)NC(C)C(c1cccs1)N1CCN(C)CC1 (stereo unspecified) | 10.2%
COc1cc(NC(=O)CS(=O)(=O)c2ccc(C)cc2)cc(OC)c1OC | 8.8%
CCN1CCN(Cc2ccc(NC(=O)Nc3ccc(OC)cc3)cc2)CC1 | -1.0%
Cc1ccc(SCCNC(=O)CN2C(=O)c3ccccc3S2(=O)=O)cc1 | -11.0%
Cc1nc2cc(C(=O)NCCN3CCOCC3)ccc2n1-c1ccc(F)cc1F | 8.4%
CCOC(=O)c1cccc(NC(=O)c2cnc3ccccc3n2)c1 | -6.4%
O=C(O)c1ccc2[nH]c3c(c2c1)CSCC3 | -24.0%
c1ccc(-c2ccc(OCCOCCn3cncn3)cc2)cc1 | 6.8%
O=C(NCCN1CCOCC1)c1cn(CCc2ccccc2)nn1 | 1.0%
O=C(NCc1nnc(SCC(=O)N2CCCC2)o1)c1c(F)cccc1Cl | 0.4%
O=C1CN=C(Nc2cccc(C(F)(F)F)c2)N1C1CCCC1 | -4.6%
Cc1nonc1NC(=O)CSc1nnc(-c2ccoc2C)n1CC(C)C | -5.3%
Cc1cc2ccccc2c(=O)n1CC(=O)NCC(=O)N1CCN(c2ccccc2F)CC1 | ?
c1ccc(-c2noc(-c3ccc4ccccc4c3)n2)cc1 | ?
O=C(CCNS(=O)(=O)c1cccs1)NCc1ccco1 | -8.5%
Cc1cccc(-n2nnc(C(=O)NCc3ccc4c(c3)OCO4)c2N)c1 | 2.5%
